HIV TAR-Tat: HIV-1 TAR-Tat binding disruption. HIV-1 TAR RNA, Tat peptide displacement FRET; active compounds read high. z-score (concentration not given with the values). 0.6% of 100,000 active. AID 1259389;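 also: score is relative to mean and SD of negative controls; some compounds called inactive have numbers as strong as hits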
CDC25B-CDK2 inh: human CDC25B-CDK2/CyclinA binding inhibition | P30305+P24941 | HTRF CDC25B-CDK2/CyclinA binding, anti-His/anti-Flag; active compounds read high | z-score (test concentration not listed) | 0.72% of 94,000 active | AID 1259370;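 also: score is relative to mean and SD of negative controls; strong numbers were not always called active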
* hit, by the source's call; x = no result given.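 The calls were made as follows: active = z-score from 3 up in half or more of its runs; inactive = the rest.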

SMILES	HIV TAR-Tat	CDC25B-CDK2 inh
CC1CCn2c(nc3cc(C(=O)NC4CCCC4)ccc32)C1 (configuration not stated)	-0.25	x
COc1ccc(/C(N)=N/OC(=O)c2ccccc2)cc1OC1CCCC1	x	-2.47
CCCc1cc(=O)n2nc(N3CCC(C(=O)NC(C)C)CC3)sc2n1	2.58	-0.23
Cn1c(C(=O)N2CCC(C(=O)N3CCCCC3)CC2)cc2sccc21	x	0.26
CCCS(=O)(=O)NCCc1sc2nc(-c3ccc(F)cc3)nn2c1C	0.62	x
Cc1cc(NC(=O)c2noc3c2CCc2ccccc2-3)no1	x	-0.26
COc1ccc(Cl)cc1Nc1nc2ccccc2n2cnnc12	-0.4	0.75
O=C(NCCc1c[nH]c2ccccc12)C1CCN(c2nc3ccccc3[nH]2)CC1	-0.08	-3.18
COC(=O)c1ccc(Oc2cc(C)nc(N)n2)cc1	1.64	0.39
Cc1c(NC(=O)CSc2nc(-c3ccccc3)cc(C(F)(F)F)n2)c(=O)n(-c2ccccc2)n1C	-1.14	-0.42
CCOC(=O)c1nc(N2CCC(C(=O)OCC)CC2)c2ccccc2n1	0.67	x
CC(C)(C)NC(=O)CSc1nnc(NC(=O)Cn2c(=O)oc3ccccc32)s1	0.37	-0.69
CNC(=O)C1CCC(Cn2c(=O)c3sccc3n(CC(=O)N3CCCCC3C)c2=O)CC1 (configuration not stated)	-0.04	x
CN(CC(=O)N1CCN(C2CCCC2)CC1)S(=O)(=O)c1cccc2nsnc12	x	-1.72
O=C1CC(c2ccc(Cl)cc2)Cc2nc(N3CCN(Cc4ccccc4)CC3)ncc21 (configuration not stated)	-9.23	-1.67
CCCCNc1nc2c(c(=O)n(C)c(=O)n2C)n1C	0.36	0.26
CCCSCCCNC(=O)C1Cc2ccccc2N1C(=O)CC (configuration not stated)	1.91	x
O=C(NCCCN1CCCC1=O)NC1COc2ccccc2C1 (configuration not stated)	1.1	x
COCCn1c(CN(C)C(=O)Nc2cc(OC)ccc2OC)nc2ccccc2c1=O	0.46	x
CCCCNCC(=O)c1c[nH]c2ccccc12	x	-1.51
O=C1CN(S(=O)(=O)c2ccc3[nH]c4c(c3c2)CCCC4)c2ccccc2N1	1.16	x
CC1CCN(CCNS(=O)(=O)c2csc(C(N)=O)c2)CC1	0.71	x
CCOC(=O)c1ccc(Cl)c(N=Cc2ccccc2O)c1	x	-0.01
CC1=C(c2ccc(C(C)C)cc2)S(=O)(=O)NC1=NC1CCCCC1	0.97	-5.34
O=C(O)c1sccc1S(=O)(=O)N1CCN(c2ncc(C(F)(F)F)cc2Cl)CC1	x	-1.16

Additional records follow:
SMILES	HIV TAR-Tat	CDC25B-CDK2 inh
CC1=C(C(N)=O)C(c2cccc(O)c2)n2ncnc2N1 (configuration not stated)	2.32	x
O=C(CNC(=O)c1ccc(F)cc1)OCc1cc(=O)n2ccsc2n1	1.27	x
Cc1cc(S(=O)(=O)N2CCN(c3ccc(F)cc3)CC2)ccc1Cl	x	-1.81
Cc1ccc(C2OC3(C(=O)c4ccccc4C3=O)C3C(=O)N(CCc4ccccc4)C(=O)C23)cc1 (configuration not stated)	x	-1.54
CCOC(=O)c1[nH]c(C)c(CN(Cc2ccco2)S(=O)(=O)c2ccc(C)c3nsnc23)c1C	-0.29	x
CCCSc1nnc2n(-c3ccccc3)c(=O)c3c(C)c(C)sc3n12	x	0.04
CCN1CCCC1CNC(=O)Cn1ncn2nc(-c3cccs3)cc2c1=O (configuration not stated)	0.5	-1.97
CNC(=O)c1nn(-c2ccccc2F)nc1CO	2.83	-1.27
O=C(c1cc(-c2ccco2)[nH]n1)N1CCN(c2ccccn2)CC1	0.22	x
Cn1c(=O)c2c(nc(CN3CCN(c4ccccc4F)CC3)n2CC(=O)C(C)(C)C)n(C)c1=O	1.46	-2.01
Cn1ncc2c(NCc3cccnc3)ncnc21	1.89	x
CCOC(=O)C1CCN(C(=O)c2sc3nc4n(c(=O)c3c2C)CCCCC4)CC1	2.65	x
CSc1cccc(NC(=O)c2cc(C(C)C)n(C3CCS(=O)(=O)C3)n2)c1 (configuration not stated)	0.3	-1.25
O=C(NC1CCCc2ccccc21)c1csc2c1CCCC2 (configuration not stated)	-0.48	-0.7
O=S(=O)(NCc1ccc(F)cc1)c1ccc2[nH]c3c(c2c1)CCCCC3	4.33	x
CC(C)Sc1ccc2n[nH]c(=O)n2n1	0.01	-0.74
COc1ccc(OC)c(NS(=O)(=O)c2cc(-c3onc(C)c3C)ccc2C)c1	0.6	x
O=C(c1noc2c1COc1ccccc1-2)N(Cc1ccccc1)Cc1cccs1	1.43	-0.22
O=C(Nc1cc(Br)ccc1O)c1cc(-c2ccc3c(c2)OCO3)on1	x	-0.3
CC(C)NC(=O)CSc1nnc(CNC(=O)OC(C)(C)C)n1C	x	-1.81
CCOC(=O)c1c(C)oc2ncnc(NCCCO)c12	1.08	-1.39
CCCCn1c(=S)[nH]c2c(oc3ccc(Cl)cc32)c1=O	x	-1.86
CCOC(=O)C1CCCN(S(=O)(=O)c2ccc3c4c2CC(=O)N4CC(C)S3)C1 (configuration not stated)	-0.27	x
CCC(C(=O)N1CCN(c2ccccc2)CC1)n1nc(C)c2sc3ccccc3c2c1=O (configuration not stated)	3.05	0.37
Cn1c(=O)c2c(-c3ccccc3)n3c(c2n(C)c1=O)C(c1ccco1)Nc1ccccc1-3 (configuration not stated)	0.02	1.89

Reprinted from above for reference:
SMILES	HIV TAR-Tat	CDC25B-CDK2 inh
CC1=C(C(N)=O)C(c2cccc(O)c2)n2ncnc2N1 (configuration not stated)	2.32	x
O=C(CNC(=O)c1ccc(F)cc1)OCc1cc(=O)n2ccsc2n1	1.27	x
Cc1cc(S(=O)(=O)N2CCN(c3ccc(F)cc3)CC2)ccc1Cl	x	-1.81
Cc1ccc(C2OC3(C(=O)c4ccccc4C3=O)C3C(=O)N(CCc4ccccc4)C(=O)C23)cc1 (configuration not stated)	x	-1.54
CCOC(=O)c1[nH]c(C)c(CN(Cc2ccco2)S(=O)(=O)c2ccc(C)c3nsnc23)c1C	-0.29	x
CCCSc1nnc2n(-c3ccccc3)c(=O)c3c(C)c(C)sc3n12	x	0.04
CCN1CCCC1CNC(=O)Cn1ncn2nc(-c3cccs3)cc2c1=O (configuration not stated)	0.5	-1.97
CNC(=O)c1nn(-c2ccccc2F)nc1CO	2.83	-1.27
O=C(c1cc(-c2ccco2)[nH]n1)N1CCN(c2ccccn2)CC1	0.22	x
Cn1c(=O)c2c(nc(CN3CCN(c4ccccc4F)CC3)n2CC(=O)C(C)(C)C)n(C)c1=O	1.46	-2.01
Cn1ncc2c(NCc3cccnc3)ncnc21	1.89	x
CCOC(=O)C1CCN(C(=O)c2sc3nc4n(c(=O)c3c2C)CCCCC4)CC1	2.65	x
CSc1cccc(NC(=O)c2cc(C(C)C)n(C3CCS(=O)(=O)C3)n2)c1 (configuration not stated)	0.3	-1.25
O=C(NC1CCCc2ccccc21)c1csc2c1CCCC2 (configuration not stated)	-0.48	-0.7
O=S(=O)(NCc1ccc(F)cc1)c1ccc2[nH]c3c(c2c1)CCCCC3	4.33	x

The listing continues.
SMILES	HIV TAR-Tat	CDC25B-CDK2 inh
Cc1nc(C(=O)NCc2cc(F)cc3c2OCOC3)sc1-c1ccc2c(c1)CCO2	x	-2.26
CCOc1ccc(CC2C(=O)Nc3ccc(Br)cc32)cc1 (configuration not stated)	-0.2	-1.23
COc1ccc(-c2cn3ccc4ccccc4c3n2)cc1OC	1.43	2.66
Cc1ccc(C)n1-c1ccc(SCC(=O)O)cc1	27.4*	0.36
O=[N+]([O-])c1cccc(-c2nn[nH]n2)c1	x	-0.04
CCOC(=O)C1=NNC(C(=O)c2ccccc2)C1c1ccccc1 (configuration not stated)	1.49	-1.68
COc1ccc(-c2onc(C)c2C)cc1S(=O)(=O)N1CCCCC1	-0.02	x
O=C(c1cnc2sccn2c1=O)N1CCc2ccccc2C1	x	-0.93
CCCC12CN3CC(C)(CN(C1)C3c1ccccc1C)C2=O (configuration not stated)	x	-0.68
O=C(NCc1ccc2c(c1)OCO2)NC1(C(F)(F)F)Oc2ccc(Cl)cc2O1 (configuration not stated)	x	0.73
COc1cc(C2Nc3ccccc3NC3=C2C(=O)CC(c2ccccc2)C3)ccc1O (configuration not stated)	x	0.94
Cc1ccsc1CNC(=O)c1c(-c2ccccc2)noc1C	x	-1.1
COc1cc(-n2c(=O)c3ccccc3n(Cc3cc(=O)n4ccccc4n3)c2=O)cc(OC)c1OC	x	-1.21
CCCCN(Cc1ccco1)C(=O)Cn1c(=O)oc2ccccc21	0.73	x
CCOc1ccc(N2Cc3ccncc3C2=O)cc1	-0.27	-2.12
CC(O)CNc1ncnc2c1c(-c1ccccc1)cn2-c1ccccc1 (configuration not stated)	x	-2.62
O=C(CCc1nnc2ccc(N3CCCC3)nn12)NC1CCCC1	1.2	x
NCCn1nnc2cc(S(=O)(=O)N3CCCC3)ccc21	1.45	x
CCOC(=O)N1CCC(NC(=O)CCS(=O)(=O)c2ccc3c(c2)NC(=O)CO3)CC1	-0.41	x
Nc1ccc(Cl)cc1/C(=N/O)c1ccccc1	x	-1.62
CC(C)NC(=O)c1ccc(CS(=O)c2ccccc2Cl)o1 (configuration not stated)	1.29	x
COC(=O)c1ccccc1NC(=O)NC1(C(F)(F)F)Oc2ccc(Cl)cc2O1 (configuration not stated)	x	0.03
Cc1ccc(-c2csc(Nc3ccc(S(N)(=O)=O)cc3)n2)cc1	1.99	-0.94
COC(=O)C(C)Sc1nnc(CSc2nc(C)cc(C)n2)n1-c1ccccc1 (configuration not stated)	0.43	0.63
OCCCNc1ncnc2c1cnn2-c1ccccc1	-0.05	x

(next part)
SMILES	HIV TAR-Tat	CDC25B-CDK2 inh
COc1ccc(N2C(=O)C3NN=C(C(=O)OCc4ccccc4)C3C2=O)cc1 (configuration not stated)	-0.34	0.04
O=C(CSc1nc(=O)n(C2CCS(=O)(=O)C2)c2c1CCC2)c1ccc(Cl)cc1 (configuration not stated)	-0.6	-0.77
Cn1c(C(=O)N2CCC(C(=O)NCc3ccccn3)CC2)cc2sccc21	-1.47	-1.29
Cc1cccc(-n2nnc(-c3nc(-c4cccnc4)no3)c2N)c1	-1.46	x
COc1cc(C)ccc1OCCSc1nc(-c2cccc(F)c2)nc2cc(=O)[nH]n12	-0.26	x
COc1ccc(C2=Nc3ccc(F)cc3NC(c3ccc(OC)c(OC)c3)=N2)cc1	0.02	-0.94
O=C(Nc1nnc(N2CCCCC2)s1)Nc1ccccc1Cl	1.27	2.43
CSc1ccc(CCNC(=O)c2ncoc2-c2ccco2)cc1	-0.47	x
Cc1ccn2c(=O)c(C(=O)NCCCN3CCCC3=O)c(O)nc2c1	1.02	-0.44
O=C(c1[nH]nc2c1COc1ccccc1-2)N1CCC(CCN2CCOCC2)CC1	2.13	x
CCCC(O)c1nc2ccccc2n1CCOc1ccc(Cl)cc1 (configuration not stated)	1.69	-1.59
O=C(NCc1csc(-c2cccs2)n1)[C@H]1CSCN1S(=O)(=O)c1cccs1	1.73	x
O=C(CCc1nc2ccccc2[nH]1)N1CCN(C(=O)c2ccco2)CC1	0.09	-1.41
Cc1cc(C)c2c(-n3cccc3)nn(CC(=O)NCc3ccco3)c2n1	0.95	x
Cc1cc(C)c2c(-n3c(C)ccc3C)nn(CC(=O)NC(C)C)c2n1	0.02	x
CNc1nc(Nc2ccc(OC)cc2)c2cnn(C)c2n1	0.06	x
CCCCCn1c(CN(C)Cc2ccccc2)nc2c1c(=O)n(C)c(=O)n2C	-0.62	-0.13
Cc1ccc(NS(=O)(=O)c2cc3[nH]c4c(c3cc2C)C(=O)CCC4)cc1	-0.82	x
Cc1ccc(S(=O)(=O)c2nnn3c2nc(N2CCOCC2)c2sccc23)cc1C	0.5	x
COc1ccc(OCC(=O)Nc2nnc(Cc3cn(C)c4ccccc34)s2)cc1	1.48	x
N#CCOc1ccc2ccccc2c1	x	-1.09
CCOc1cc(-n2cnnn2)c(OCC)cc1N	-2.99	14.4*
COc1ccc(N2CCN(S(=O)(=O)c3c(C)nc4sc(C)cn4c3=O)CC2)cc1	-1.12	x
CCCCNC(=O)CCCn1c(=O)c2cccn2c2cccnc21	-0.12	x
S=c1ccc(N2CCCCC2)n[nH]1	x	0.33

Additional records
SMILES	HIV TAR-Tat	CDC25B-CDK2 inh
Cc1nn(Cc2nnc(SCC(=O)Nc3ccc(Cl)cc3Cl)o2)c(C)c1Br	x	-1.52
COc1ccc2nc(C)cc(Cl)c2c1	1.08	-1.51
O=c1ccc(-c2ccc(S(=O)(=O)Nc3ccc(F)cc3)s2)n[nH]1	1.45	x
CC(=O)c1c(O)c2ccccc2[nH]c1=O	x	-1.3
CCCCC(=O)Nc1ccc(OCc2cc(=O)n3c(C)csc3n2)cc1	2.3	-2
Cc1ccc(C(=O)N2CCC(NC(=O)Cc3ccccc3)CC2)cc1	x	-0.44
Nc1c(-c2nc(-c3ccccc3)cs2)c2ccccn2c1C(=O)c1ccccc1	0.23	-1.37
COc1ccc(CN(Cc2cccn2C)S(=O)(=O)c2cccc(C(F)(F)F)c2)cc1	x	-1.38
CCc1ccc(-c2cn3c(n2)sc2cc(C(=O)N4CCN(c5ncccn5)CC4)ccc23)cc1	2.24	x
Cc1ccsc1C1Nc2ccc3ccccc3c2C2=C1C(=O)CC(C)(C)C2 (configuration not stated)	-1.16	4.73
COc1cc(CN2CCN(C3CCCCC3)CC2)cc(OC)c1OC	x	-0.23
CCN(CC)CCNC(=O)CCc1c(C)nc2c(c(C)nn2C(C)(C)C)c1C	-0.17	6.05
Cn1nnc2c(NCCN3CCOCC3)ncnc21	1.81	x
Nc1nc(-c2cccc(Br)c2)cs1	1.93	-0.63
CN(C)c1nc2ccccc2nc1N(C)C	x	-1.34
c1ccc(CCNCc2cccc(Oc3nnnn3-c3ccccc3)c2)cc1	0.84	x
CS(=O)(=O)c1nc(S(=O)(=O)c2ccc(Cl)cc2)c(N2CCC(O)CC2)s1	1.6	-0.93
O=C(O)CCCC(=O)N1CCN(c2nc(-c3ccccc3)c3ccccc3n2)CC1	0.57	-3.5
O=C(Cc1ccc(-c2ccccc2)cc1)NNC(=O)c1cccc(Cl)c1	x	-3.61
Cc1cccc(-n2nnc(-c3nc(-c4ccc(Cl)cc4)no3)c2N)c1C	0.97	x
CC1CCc2nn(CC(=O)Nc3ccc(F)cc3F)cc2C1 (configuration not stated)	x	-1.49

Screening results deposited in PubChem by Center for Chemical Genomics, University of Michigan.
